High-throughput results from PubChem.
GIV Gai3 FP: GIV-Galpha-i interaction inhibition; P08753; Galpha-i3/FITC-GIV peptide fluorescence polarization, 90 min; hits give low values; scaled: aluminum fluoride 0%, vehicle 100%; percent of control (FP), % (no concentration beside the values); actives 0.42% (n = 210,000);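 active = replicate mean at 85% of control or lower, very high polarization wells dropped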;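 also: wells of about 15 µL received 100 nL stock; the first replicate is given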
Target sequence (P08753 whole entry, looked up): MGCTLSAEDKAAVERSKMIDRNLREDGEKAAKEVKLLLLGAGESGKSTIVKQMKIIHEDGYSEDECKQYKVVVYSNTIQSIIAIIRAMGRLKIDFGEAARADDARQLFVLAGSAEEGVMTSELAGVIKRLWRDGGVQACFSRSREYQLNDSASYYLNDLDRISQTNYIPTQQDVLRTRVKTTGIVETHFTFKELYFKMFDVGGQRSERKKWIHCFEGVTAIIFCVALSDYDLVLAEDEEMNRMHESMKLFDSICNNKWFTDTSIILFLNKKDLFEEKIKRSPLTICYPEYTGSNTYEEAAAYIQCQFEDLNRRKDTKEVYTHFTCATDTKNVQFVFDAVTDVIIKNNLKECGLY
HCMV NEC inh: inhibitors of HCMV UL50-UL53 nuclear egress complex interaction; HTRF UL50-UL53 interaction, normalized percent inhibition; inhibition, % (concentration not given with the values); actives 0.15% (n = 190,000);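 active = both replicates at 50% or more, plus weaker picks with an unusually low signal ratio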;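 also: stock transfer was 100 nL into about 20 µL; 0% = negative control wells and 100% = wells with untagged competitor protein; inactives centre near -12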
Sa growth 42C: inhibitors of Staphylococcus aureus growth at 42 °C | S. aureus RN4220 growth, OD600, 20 h; hits give low values | relative growth, % (concentration not given with the values) | actives 0.53% (n = 170,000) | AID 720641;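 active = growth at 42 °C up to 50% and 20 or more points under that at 30 °C, or under 10% at both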;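 also: 300 nL library stock went into each well; scaled to the means of positive and negative controls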
Sa growth 42C second temp: recorded beside Sa growth 42C, whose call it bears; relative growth, %; measured here: growth at 30 °C;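 optical density after 20 h as mean of two plates; 100% = untreated growth and lower means inhibition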
* hit, by the source's call; nt = no result given; & = joins results of further samples.

Compound	GIV Gai3 FP	HCMV NEC inh	Sa growth 42C	Sa growth 42C second temp
Nc1ccc(Sc2nc3ccccc3[nH]2)c(Cl)c1	100	-4	123	102
Cc1nn(-c2ccccc2)c(Cl)c1C=C(C#N)C#N	nt	11	95	87
COc1ccc(OC)c(CCNC(=O)c2ccc3[nH]c(C)c(C)c3c2)c1	110	nt	111	103
CC1CCCN(C2(O)C(=O)N(Cc3ccccc3)c3ccccc32)C1 (stereo not drawn)	99	-30	103	90
CCCS(=O)(=O)Cc1nnc(-c2cc(Cl)cc(Cl)c2)o1	101	3	100	111
CN1C(=O)c2ccccc2C(C(=O)O)C1c1ccc(F)cc1 (stereo not drawn)	102	0	nt	nt
O=C(COCc1cc(-c2cccs2)on1)NCc1ccccc1Cl	99	nt	96	82
Cc1ccc(C)c(N2CCN(c3cc(C)nn4cnnc34)CC2)c1	105	-13	72	59
NS(=O)(=O)c1ccc(CCNC(=O)CN2C(=O)c3cccnc3Oc3ccccc32)cc1	100	-2	nt	nt
O=C(CSC1CCCC1)c1ccco1	nt	14	100	95
CCOC(=O)C1=C(C)N=c2s/c(=C\c3cccnc3)c(=O)n2C1c1ccc(OC)c(Br)c1 (stereo not drawn)	107	6	nt	nt
Cc1ccccc1NC1CC(C)N(C(=O)CN2C(=O)c3ccccc3C2=O)c2c(C)cccc21 (stereo not drawn)	106	nt	126	86
CC1=C(C(=O)Nc2ccc(C)c(C)c2)C2(CCCCCC2)OC1=O	111	nt	93	119
Cc1ccc(N2CC(NC(=O)C3CCCCC3)CC2=O)cc1 (stereo not drawn)	94	nt	95	88
CCN(CC)S(=O)(=O)c1ccc2c(c1)nc(CN(C)C(=O)c1cccc(Cl)c1)n2C	102	nt	80	89
CC1(C(=O)NCc2ccccc2)Cn2c(cc3occc32)C(=O)N1Cc1ccc(Cl)cc1 (stereo not drawn)	111	-28	nt	nt
CCCN(CCC)Cc1csc2c1CCCC2	107	nt	109	96
CCOC(=O)C1C(=O)C=C(c2ccco2)CC1c1ccc(CC)cc1 (stereo not drawn)	99	nt	76	71
CCOc1ccc(CNC(=O)Cn2nc(C)c3sc4ccccc4c3c2=O)cc1	106	16	95	94
COCC(=O)NCc1ccc2c(c1)OCO2	107	11	86	79
CC(C)NS(=O)(=O)c1ccc(Br)c(C(=O)OCC(=O)Nc2nnc(-c3ccccc3)o2)c1	nt	-32	19	0
CC1=NOC(=O)/C1=C/c1ccc(-c2ccc(Cl)cc2)o1	105	-9	85	37
O=C(NC1CCCCC1)c1ccc(Cn2c(SCc3cccc(F)c3)nc3cccnc32)cc1	102	nt	109	92
O=C(O)c1ccc2nc(N3CCCCC3)sc2c1	100	nt	91	75
Cc1c(NC(=O)CCN2C(=S)NC(C)(C)CC2C)c(=O)n(-c2ccccc2)n1C (stereo not drawn)	102	nt	82	92
O=C(Oc1ccc(Cl)cc1)C1c2ccccc2Oc2ccccc21	99	nt	95	81
NC(=O)c1c(NC(=O)CN2C(=O)S/C(=C/c3c(Cl)cccc3Cl)C2=O)sc2c1CCCC2	106	15	nt	nt
COc1cccc(NC(=O)Cn2c(C(F)(F)F)nc3ccccc32)c1	99	-20	nt	nt
O=S(=O)(c1ccc(C(F)(F)F)cc1)n1nccc1-c1cc(-c2ccccc2)no1	98	-34	103	84
Cc1nc(-c2ccc(CN)s2)cs1	nt	-13	91	96
CC(=O)c1ccc(NC(=O)Cn2c(=O)nc(-c3ccccc3)c3cc(Cl)ccc32)cc1	110	nt	91	75
Cc1cc(I)ccc1NC(=O)c1ccccc1N(C)S(C)(=O)=O	101	-4	102	90
CCOC(=O)c1scc(-c2ccccc2)c1S(=O)(=O)Nc1ccccc1OC	106	nt	92	97
Cc1cccc(NC(=O)c2ccc3c(c2)NC(=O)CO3)c1	97	9	nt	nt
CCCS(=O)(=O)NCc1cccn1Cc1ccc(C)cc1	112	-16	nt	nt
CCCCN(C)C(=O)Cn1ncc2c1-c1ccccc1OC2	98	-6	102	92
COc1ccc(NC(=O)C2CCN(C(=O)c3sc4nc[nH]c(=O)c4c3C)CC2)c(OC)c1	112	nt	99	85
CCOC(=O)CC1=CC(SCC(=O)Nc2ccc3c(c2)OCCO3)=Nc2cc(C)c(C)cc2N1	110	-29	nt	nt
COCCn1c(SCc2nc3ccccc3o2)nc2ccccc21	nt	-7	107	89
COc1ccccc1C(=O)Nc1ccc(OCc2cc(=O)n3ccc(C)cc3n2)cc1	98	nt	90	77
O=C(Cc1ccc(F)cc1)N/N=C/c1ccc(C(=O)O)cc1	nt	-35	91	95
Cc1ccc(S(=O)(=O)N2CC(=O)N(c3ccc(C)c(F)c3)C(C)(C(=O)NC3CCCC3)C2)cc1 (stereo not drawn)	105	-31	nt	nt
COC(=O)C1=C(C)NC(C)=C(C(=O)OC)C1C(=O)OCC(=O)Nc1cccc2nsnc12	nt	-88	73	94
Cc1ccc(C)n1-c1c(C(=O)NCC(C)c2ccccc2)sc2ncccc12 (stereo not drawn)	99	nt	82	83
O=C1/C(=C/c2ccc(OC(F)F)cc2)NC(=S)N1Cc1ccco1	nt	-44	93	76
CN(C)c1ccc(C(=O)OCC(=O)Nc2ccc(F)cc2F)cc1	nt	-25	102	87
COC(=O)c1ccc(OCC(O)CN2C(=O)c3ccccc3S2(=O)=O)cc1 (stereo not drawn)	109	18	nt	nt
COC(=O)c1ccsc1NC(=O)c1ccc(C)cc1	106	-24	102	81
O=C(Cn1ncc2ccccc21)Nc1cc(-c2cccc(Cl)c2)no1	102	nt	100	91
CCOC(=O)c1ccc2c(c1)ncn2/C=C\NC(=O)c1ccc(Cl)cc1	nt	-13	100	90
COc1ccc(N(C)C(=O)c2cn(CC(C)C)c(=O)c3cc(OC)c(OC)cc23)cc1	101	nt	108	76
Cc1cccc(N(CC(=O)Nc2ccccc2)S(C)(=O)=O)c1C	97	nt	114	84
Cc1nc(-c2cc3cccc(C)c3nc2N2CCOCC2)no1	104	9	nt	nt
CCCOc1ccc(NC(=O)CC2SC(N)=NC2=O)cc1 (stereo not drawn)	103	-19	91	87
O=C(OC(C(=O)c1ccccc1)c1ccccc1)c1cnc(Cl)c(Cl)c1 (stereo not drawn)	nt	-9	112	89
Cc1ccc2c(c1)c(=O)n(CC(C)C)c1nnc(SCc3ccccc3C)n21	97	-26	nt	nt
O=C(CN1C(=O)COc2ccc(S(=O)(=O)N3CCCC3)cc21)N1CCN(c2ccc(Cl)cc2)CC1	108	8	104	85
N#CCCN/N=C/c1ccncc1	nt	-50	111	92
C[C@@H](O)[C@H]1C(=O)N2C(C(=O)O)=C(SCCN=CN)C[C@H]12	108&100	-34&-22&-35	29*	54*
Cc1nn(-c2ccc(N3CCCC3)nn2)c(C)c1CCC(=O)NCc1ccccc1F	97	nt	85	94

(further entries)
Compound	GIV Gai3 FP	HCMV NEC inh	Sa growth 42C	Sa growth 42C second temp
COc1cc(C2C(=O)N(C3CCCCCC3)CC(=O)N2CCc2ccccc2)ccc1OC(C)C (stereo not drawn)	104	nt	106	85
O=c1cc(-c2ccccc2)nc(SCc2ccccn2)[nH]1	102	-39	100	87
COc1ccccc1NC(=O)NCc1c(C)nn(-c2ccccc2)c1-n1cccc1	107	-29	nt	nt
COc1cc(Br)c(CNc2ccccc2)cc1OC	103	-10	85	86
COC(=O)c1ccc(NC(=O)CSc2nnc(C)c3ccccc23)cc1	119	-6	nt	nt
N#CC(C(=O)CC12CC3CC(CC(C3)C1)C2)c1nc2ccccc2[nH]1 (stereo not drawn)	nt	-13	91	91
Cc1cc(C)c2c(=O)[nH]c(SCC(=O)NC34CC5CC(CC(C5)C3)C4)nc2n1	nt	-43	97	74
CSc1ncc(Cl)c(C(=O)Nc2ccc(C)cc2)n1	nt	-12	114	87
CC1CCCCN1C(=O)C1=CC(c2ccco2)=NS(=O)(=O)N1C (stereo not drawn)	97	-67	86	82
CC(Oc1ccc(Cl)cc1)C(=O)OCC(=O)Nc1ccc(F)cc1F (stereo not drawn)	nt	-21	105	96
CC1c2cccn2CCN1C(=O)Nc1ccccc1 (stereo not drawn)	117	2	107	99
CN(C(=O)c1nn(-c2ccc(Cl)cc2)c(=O)c2ccccc12)C1CCCCC1	102	-19	nt	nt
Cn1c(SCc2ccccc2C#N)nnc1C(F)(F)F	nt	-7	92	94
Cc1cccc(NC(c2nnc(-c3ccccc3)o2)c2ccc(F)cc2Cl)c1C (stereo not drawn)	99	nt	78	88
CC(=O)N(Cc1ccc2c(c1)OCO2)C1CC(=O)N(c2ccccc2)C1=O (stereo not drawn)	98	-18	122	104
COc1ccccc1-c1c(C)c(CC(C)C)nc(N)c1C#N	98	-13	98	97
Cc1cccc2c(=O)c(NC(=O)NCCO)c[nH]c12	95	-14	nt	nt
COc1cccc(CNC(=O)c2cc(S(=O)(=O)N3CCCCC3)cn2C)c1	101	nt	102	92
CC(=O)Nc1ccc(-c2nnc3n(Cc4ccccc4Cl)c(=O)c4ccccc4n23)cc1	101	nt	86	82
O=C(CSc1nccn1-c1ccccc1)NO	103	0	85	93
COc1cccc(NC(=O)c2nn(-c3ccc(C)cc3)c(=O)n(C)c2=O)c1	104	nt	106	100
CCOC(=O)c1cc2c(=O)n3ccccc3nc2n(CC2CCCO2)c1=NC(=O)c1ccc(F)cc1 (stereo not drawn)	105	-19	103	98
Cc1ccc(CNC(=O)Cn2c(=O)n(Cc3ccccc3)c(=O)c3c2c2cc(C)ccc2n3C)cc1	106	nt	92	84
CC1CC(C)CN(C(=O)c2cc3c(s2)CCCC3)C1 (stereo not drawn)	nt	-17	47	57
CC(C)Oc1ccc(CNC(=O)c2cccc(NC(=O)N3CCSc4ncccc43)c2)cc1	104	nt	104	83
CCCN(CCC)C(=O)Cn1c(=O)n(CCCCC(=O)Nc2ccc(OC)cc2)c(=O)c2ccccc21	106	-25	110	93
c1ccc(C(NCc2cccs2)c2ccccc2)cc1	nt	-8	98	94
CCC1(C)NC(=O)N(/N=C/c2cc(C)n(CC(C)C)c2C)C1=O (stereo not drawn)	nt	-13	106	99
Cc1cc(-c2nnc(-c3cccc(Cl)c3)o2)no1	109	-14	101	94
CCOc1ccc(NC(=O)c2c(NC(=O)Cc3ccccc3)sc3c2CCCCC3)cc1	103	-47	103	77
Cc1ccc(SCC(=O)NC2CCCCC2C)cc1 (stereo not drawn)	104	-2	95	99
COc1ccc(C(=O)Nc2ccc(Cl)cc2)cc1S(=O)(=O)Nc1ccc(Cl)cc1	nt	-5	98	114
CC1CCN(C(=O)c2scc3c2CCCC3)CC1	nt	-25	97	85
COc1ccc(OC)c(NC(=O)c2cc3cc(Br)ccc3oc2=O)c1	101	-12	nt	nt
Cc1nnc(SCC(=O)N2CCCCC2)o1	103	1	95	93
Cc1ccc(Nc2nn(CCC(=O)O)c(=S)n2-c2ccc(C)cc2)cc1	103	-26	101	87
O=C(NCc1ccc(-c2nc3ncccc3o2)cc1)c1ccc(Cl)cc1	107	-29	95	101
Cc1cc2cc(CNC(=O)CCC3CCCCC3)ccc2n1C	100	nt	99	91

Structures listed so far that have a thiophene ring, fused or not:
Compound	GIV Gai3 FP	HCMV NEC inh	Sa growth 42C	Sa growth 42C second temp
O=C(COCc1cc(-c2cccs2)on1)NCc1ccccc1Cl	99	nt	96	82
CCCN(CCC)Cc1csc2c1CCCC2	107	nt	109	96
CCOc1ccc(CNC(=O)Cn2nc(C)c3sc4ccccc4c3c2=O)cc1	106	16	95	94
NC(=O)c1c(NC(=O)CN2C(=O)S/C(=C/c3c(Cl)cccc3Cl)C2=O)sc2c1CCCC2	106	15	nt	nt
Cc1nc(-c2ccc(CN)s2)cs1	nt	-13	91	96
CCOC(=O)c1scc(-c2ccccc2)c1S(=O)(=O)Nc1ccccc1OC	106	nt	92	97
COc1ccc(NC(=O)C2CCN(C(=O)c3sc4nc[nH]c(=O)c4c3C)CC2)c(OC)c1	112	nt	99	85
Cc1ccc(C)n1-c1c(C(=O)NCC(C)c2ccccc2)sc2ncccc12 (stereo not drawn)	99	nt	82	83
COC(=O)c1ccsc1NC(=O)c1ccc(C)cc1	106	-24	102	81
CC1CC(C)CN(C(=O)c2cc3c(s2)CCCC3)C1 (stereo not drawn)	nt	-17	47	57
c1ccc(C(NCc2cccs2)c2ccccc2)cc1	nt	-8	98	94
CCOc1ccc(NC(=O)c2c(NC(=O)Cc3ccccc3)sc3c2CCCCC3)cc1	103	-47	103	77
CC1CCN(C(=O)c2scc3c2CCCC3)CC1	nt	-25	97	85
